High-throughput results deposited in PubChem by Broad Institute.
ID4 SMM: binders of human ID4 protein; calls only; small molecule microarray, Flag-ID4 binding, fluorescence F/B; P47928; 31,000 compounds, 1.2% hits;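 active = spot signal over background at p below 0.07 in all four prints; compounds were printed on slides so no solution concentration is given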;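 also: a binder raises fluorescence above local background on the spot; about 2 pmol printed per array spot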
Target sequence (P47928 whole entry, looked up): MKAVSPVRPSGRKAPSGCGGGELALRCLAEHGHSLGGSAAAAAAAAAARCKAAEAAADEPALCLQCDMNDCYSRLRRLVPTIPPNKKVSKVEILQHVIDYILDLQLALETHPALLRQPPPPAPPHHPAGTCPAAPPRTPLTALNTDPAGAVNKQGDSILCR
mut p53 SMM: binds human mutant p53 on microarray; small molecule microarray binding, anti-GST fluorescence; 17,000 compounds, 0.4% hits; calls only; AID 624136;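 active = compounds whose four printed spots each glow above background more than chance allows, each with a p-value under 7%; compounds were printed on slides so no solution concentration is given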;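 also: about 2 pmol printed per array spot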
Myc binder: binds human c-Myc on microarray; P01106; small molecule microarray, His-c-Myc binding, anti-His fluorescence; calls only; 17,000 compounds, 1.5% hits;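 active = spot fluorescence over background with P-value below 7% in all four replicate spots, showing protein binding; compounds were printed on slides so no solution concentration is given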;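 also: score is binary with 100 for all four spots passing and 0 otherwise; about 2 pmol printed per array spot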
Target sequence (P01106 whole entry, looked up): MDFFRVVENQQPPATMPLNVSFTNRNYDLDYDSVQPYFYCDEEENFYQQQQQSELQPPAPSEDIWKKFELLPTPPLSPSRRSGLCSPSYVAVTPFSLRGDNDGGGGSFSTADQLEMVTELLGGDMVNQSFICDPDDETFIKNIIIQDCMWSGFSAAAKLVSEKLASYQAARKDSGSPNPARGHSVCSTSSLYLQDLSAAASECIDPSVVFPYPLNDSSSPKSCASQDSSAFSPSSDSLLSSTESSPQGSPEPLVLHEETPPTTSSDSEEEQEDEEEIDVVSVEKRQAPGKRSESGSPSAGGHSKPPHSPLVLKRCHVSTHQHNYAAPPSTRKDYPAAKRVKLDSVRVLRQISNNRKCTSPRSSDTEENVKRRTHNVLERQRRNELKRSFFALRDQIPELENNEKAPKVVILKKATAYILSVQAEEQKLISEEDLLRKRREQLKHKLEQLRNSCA
STAT3 SMM: STAT3 (human) binding. P40763. Small molecule microarray, His-STAT3 binding, anti-His fluorescence. calls only. 17,000 compounds, 0.2% hits;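 active = compounds whose four printed spots each show fluorescence over background unusually high for their array block, chance value under 7%; compounds were printed on slides so no solution concentration is given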;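 also: about 2 pmol printed per array spot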
Calls only; i = inactive; nt = not tested or not shown; + = active, no number. This is a subset, so the mix of outcomes need not match the whole.

SMILES | ID4 SMM | mut p53 SMM | Myc binder | STAT3 SMM
C[C@@H]1CN([C@@H](C)CO)C(=O)c2cc(NS(C)(=O)=O)ccc2O[C@@H](C)CCCCO[C@@H]1CN(C)S(=O)(=O)c1ccccc1 | i | i | i | i
CCn1c(SCC(=O)Nc2c(C)cc(C)cc2C)nnc1-c1ccccc1C | i | i | i | i
[N-]=[N+]=Nc1ccccc1C[C@@]1(C(=O)NCC(O)CO)N=C(c2ccc(OCCCO)cc2)O[C@@H]1c1ccccc1 (some centres not stated) | i | i | i | i
O=C(/C=C/C=C/c1ccc2c(c1)OCO2)N1CCCC1 | nt | i | i | i
C[C@@H]1CCCCO[C@@H](CN(C)S(=O)(=O)c2cn(C)cn2)[C@@H](C)CN([C@@H](C)CO)C(=O)c2cc(NS(=O)(=O)c3cn(C)cn3)ccc2O1 | i | i | i | i
CNC[C@@H]1Oc2ccc(NC(=O)c3ccncc3)cc2CC(=O)N([C@@H](C)CO)C[C@H]1C | + | i | i | i
C[C@@H]1CN([C@@H](C)CO)C(=O)Cc2cc(NS(=O)(=O)c3cn(C)cn3)ccc2O[C@@H]1CN(C)CC1CC1 | i | i | i | i
COc1ccc(NC(=O)C(=O)NCCCO)c(OC)c1 | i | i | i | i
C[C@@H]1CN([C@@H](C)CO)C(=O)CCCn2cc(nn2)CO[C@H]1CN(C)S(=O)(=O)c1ccc(Oc2ccccc2)cc1 | i | i | i | i
C[C@@H]1CN([C@H](C)CO)C(=O)c2cc(NS(C)(=O)=O)ccc2O[C@@H](C)CCCCO[C@H]1CN(C)Cc1ccccc1 | i | i | i | i
C[C@H]1CN([C@@H](C)CO)C(=O)Cc2cc(NC(=O)NC3CCCCC3)ccc2O[C@H]1CN(C)C(=O)Nc1ccc(C(F)(F)F)cc1 | i | i | i | i
CCCCN1C(=O)[C@H]2Cc3c([nH]c4ccccc34)[C@H](c3ccc(OC)cc3)N2C1=O | i | i | i | i

4 entries from above, field by field:
mol: C[C@@H]1CCCCO[C@@H](CN(C)S(=O)(=O)c2cn(C)cn2)[C@@H](C)CN([C@@H](C)CO)C(=O)c2cc(NS(=O)(=O)c3cn(C)cn3)ccc2O1
  ID4 SMM: i
  mut p53 SMM: i
  Myc binder: i
  STAT3 SMM: i

mol: CNC[C@@H]1Oc2ccc(NC(=O)c3ccncc3)cc2CC(=O)N([C@@H](C)CO)C[C@H]1C
  ID4 SMM: +
  mut p53 SMM: i
  Myc binder: i
  STAT3 SMM: i

mol: C[C@@H]1CN([C@@H](C)CO)C(=O)Cc2cc(NS(=O)(=O)c3cn(C)cn3)ccc2O[C@@H]1CN(C)CC1CC1
  ID4 SMM: i
  mut p53 SMM: i
  Myc binder: i
  STAT3 SMM: i

mol: COc1ccc(NC(=O)C(=O)NCCCO)c(OC)c1
  ID4 SMM: i
  mut p53 SMM: i
  Myc binder: i
  STAT3 SMM: i

Next section:
SMILES | ID4 SMM | mut p53 SMM | Myc binder | STAT3 SMM
C[C@@H]1CN([C@H](C)CO)C(=O)c2cccc(NC(=O)Nc3ccc(C(F)(F)F)cc3)c2O[C@H]1CN(C)S(=O)(=O)c1cccs1 | i | i | i | i
COc1ccc(CCO[C@@H]2O[C@H](CO[C@@H]3OC[C@H](O)[C@H](O)[C@H]3O)[C@@H](OC(=O)/C=C/c3ccc(O)c(OC)c3)[C@H](O[C@@H]3O[C@@H](C)[C@H](O)[C@@H](O)[C@H]3O)[C@H]2O)cc1O | nt | i | i | i
C[C@@H]1CN([C@H](C)CO)C(=O)Cc2cc(NS(C)(=O)=O)ccc2O[C@@H]1CN(C)C(=O)Nc1ccc(C(F)(F)F)cc1 | i | i | i | i
Cc1noc(C)c1S(=O)(=O)N(C)C[C@@H]1Oc2ccc(NC(=O)Cc3ccccc3)cc2CC(=O)N([C@H](C)CO)C[C@@H]1C | i | i | i | i
C[C@@H]1CN([C@@H](C)CO)C(=O)c2cccc(NC(=O)NC3CCCCC3)c2O[C@H]1CN(C)S(=O)(=O)c1cn(C)cn1 | i | i | i | i
C[C@@H]1CCCCO[C@@H](CN(C)C(=O)C2CCCCC2)[C@@H](C)CN([C@H](C)CO)C(=O)c2cc(NC(=O)NC3CCCCC3)ccc2O1 | nt | i | i | i
C[C@H](CO)N1C[C@H](C)[C@H](CN(C)Cc2ccc3c(c2)OCO3)Oc2c(NC(=O)Nc3cccc4ccccc34)cccc2C1=O | i | i | i | i
CNC[C@H]1Oc2ccc(NC(=O)CCN3CCOCC3)cc2C(=O)N([C@H](C)CO)C[C@@H]1C | i | i | i | i
C[C@H](CO)N1C[C@H](C)[C@H](CN(C)C(=O)Nc2ccc3c(c2)OCO3)Oc2c(NS(=O)(=O)c3ccccc3)cccc2C1=O | i | i | i | i
C[C@H](CO)N1C[C@H](C)[C@@H](CN(C)Cc2ccc(C(F)(F)F)cc2)Oc2ccc(NS(=O)(=O)c3ccc(Cl)cc3)cc2CC1=O | nt | i | i | i
CC(C)NC(=O)N(C)C[C@H]1OCCCC[C@@H](C)Oc2ccc(NC(=O)Nc3ccc(F)cc3)cc2C(=O)N([C@@H](C)CO)C[C@H]1C | i | i | i | i
Nc1ccc2c3c(cccc13)C(=O)NC2=O | i | i | i | i
Cc1sc2nc(SCC(=O)NCc3ccco3)n(C)c(=O)c2c1C | i | i | i | i
C[C@@H]1CN([C@@H](C)CO)C(=O)c2cccc(NC(=O)Nc3cccc4ccccc34)c2O[C@H]1CN(C)CC1CC1 | i | i | i | i
COc1ccccc1-n1c(CSc2nc3cc(C(=O)N4CCCC4)ccc3s2)nc2ccccc2c1=O | i | i | i | i
O=C(CS(=O)(=O)c1ccccc1)Nc1ccc2c(c1)OCCO2 | i | i | i | i
Cc1noc(C)c1S(=O)(=O)Nc1ccc2c(c1)C(=O)N([C@@H](C)CO)C[C@H](C)[C@H](CN(C)C(=O)c1ccncc1)OCCCC[C@H](C)O2 | i | i | i | i
O=C(O)CCC(NC(=O)c1ccc(Cl)cc1)C(=O)O (configuration not stated) | i | i | i | i
C[C@H](CO)N1C[C@H](C)[C@@H](CN(C)C(=O)Nc2cccc3ccccc23)Oc2ccc(NC(=O)CCN3CCOCC3)cc2CC1=O | i | i | i | i
CC(Sc1nc(N2CCOCC2)c2c(c1C#N)CC(C)(C)OC2)C(=O)Nc1ccccc1 (configuration not stated) | i | i | i | i
C[C@H]1CN([C@@H](C)CO)C(=O)c2cccc(NC(=O)c3ccncc3)c2O[C@@H]1CN(C)C(=O)NC1CCCCC1 | i | i | i | i
C[C@H](CO)N1C[C@H](C)[C@H](CN(C)S(=O)(=O)c2ccccc2)Oc2ncc(Br)cc2C1=O | i | i | i | i
O=C(/C=C/c1ccc(O)cc1)NCCc1ccc(O)cc1 | nt | i | i | i
CC(=O)NC(C(=O)O[C@H]1CCC(C)(C)[C@@H]2CC=C3C(=O)OCC3(O)[C@@]12C)C(C)C (some centres not stated) | i | i | i | i
COc1ccc(NC(=O)N(C)C[C@H]2OCCCC[C@H](C)Oc3ccc(NC(=O)Nc4ccc(C(F)(F)F)cc4)cc3C(=O)N([C@H](C)CO)C[C@@H]2C)cc1 | nt | i | i | i
COc1ccc(NC(=O)N(C)C[C@@H]2Oc3c(cccc3N(C)C)C(=O)N([C@H](C)CO)C[C@@H]2C)cc1 | i | i | i | i
C[C@H](CO)N1C[C@H](C)[C@H](CN(C)C(=O)c2ccccc2)OCCCC[C@H](C)Oc2ccc(NC(=O)Nc3ccc4c(c3)OCO4)cc2C1=O | i | + | + | i
C[C@@H]1CN([C@H](C)CO)C(=O)c2cc(NC(=O)C3CC3)ccc2O[C@H]1CN(C)Cc1ccc(C(=O)O)cc1 | i | i | i | i
COc1ccc(S(=O)(=O)N(C)C[C@H]2Oc3ccc(NS(=O)(=O)c4ccc(Cl)cc4)cc3C(=O)N([C@H](C)CO)C[C@@H]2C)cc1 | i | i | i | i
CC(=O)Nc1ccc2c(c1)nc1n2CCN(Cc2ccco2)C1 | i | i | i | i
C[C@@H]1CCCCO[C@H](CN(C)S(=O)(=O)c2cn(C)cn2)[C@@H](C)CN([C@@H](C)CO)C(=O)c2cc(N(C)C)ccc2O1 | nt | i | i | i
COc1ccc(OC(=O)CCN2C(=O)C3C4C=CC(C4)C3C2=O)cc1 (configuration not stated) | i | i | i | i
CC(C)NC(=O)N(C)C[C@@H]1Oc2c(NC(=O)c3nc4ccccc4s3)cccc2C(=O)N([C@@H](C)CO)C[C@@H]1C | nt | i | i | i
C[C@@H]1CN([C@H](C)CO)C(=O)c2cc(NC(=O)Nc3ccccc3)ccc2O[C@@H](C)CCCCO[C@H]1CN(C)S(=O)(=O)c1cccs1 | nt | i | i | i
C=C(C(=O)O)C1CCC2(C)CCC(=O)C(C)=C2C1 (configuration not stated) | i | i | i | i
COc1ccc(S(=O)(=O)N(C)C[C@@H]2Oc3ccc(NC(=O)C4CC4)cc3C(=O)N([C@@H](C)CO)C[C@H]2C)cc1 | i | i | i | i
CC(=O)c1cccc(NC(=S)NCc2ccccn2)c1 | i | i | i | i
O=S(CCSc1nc2ccccc2s1)Cc1ccc(Cl)cc1 (configuration not stated) | i | i | i | i
C=C1C(=O)O[C@H]2C1CCC(C)=C1C(=O)C=C(C)[C@@]12O (some centres not stated) | nt | i | i | i
CC(C)NC(=O)N(C)C[C@@H]1OCCCC[C@H](C)Oc2ccc(NS(=O)(=O)c3cccs3)cc2C(=O)N([C@H](C)CO)C[C@@H]1C | i | i | i | i
Cc1noc(C)c1S(=O)(=O)N(C)C[C@@H]1Oc2ccc(N(C)C)cc2CC(=O)N([C@@H](C)CO)C[C@H]1C | i | i | i | i
C[C@H](CO)N1C[C@H](C)[C@H](CN(C)C(=O)Nc2ccc(F)cc2)Oc2c(NC(=O)Nc3ccc(C(F)(F)F)cc3)cccc2C1=O | i | i | i | i
Cc1ccc(S(=O)(=O)N(C)C[C@@H]2Oc3ncc(/C=C/c4ccccc4)cc3C(=O)N([C@H](C)CO)C[C@@H]2C)cc1 | nt | i | i | i
Nc1nc(Nc2ccccc2)nc2c1ncn2C1OC(CO)C(O)C1O (configuration not stated) | i | i | i | i
C[C@@H]1CN([C@H](C)CO)C(=O)c2cc(NC(=O)Cc3ccccc3)ccc2O[C@@H](C)CCCCO[C@H]1CN(C)S(=O)(=O)c1cccs1 | i | i | i | i
C[C@@H]1CCCCO[C@@H](CN(C)S(=O)(=O)c2ccc(F)cc2)[C@@H](C)CN([C@H](C)CO)C(=O)c2cc(NC(=O)c3ccncc3)ccc2O1 | i | i | i | i
O=S(=O)(N[C@@H]1CCN(Cc2cccc(OCCO)c2)C1)c1cccc2cccnc12 | i | i | i | i
CCOc1ccccc1NC(=O)C(C)N1c2cccc3cccc(c23)S1(=O)=O (configuration not stated) | i | i | i | i
C[C@H]1CCCCO[C@@H](CN(C)C(=O)c2ccccc2)[C@@H](C)CN([C@@H](C)CO)C(=O)c2cc(NS(=O)(=O)c3cn(C)cn3)ccc2O1 | i | i | i | i
c1cc(CN2CCCCC2)cc(OCCCNc2nc3ccccc3s2)c1 | i | i | i | i
C[C@@H]1CN([C@H](C)CO)C(=O)Cc2cc(NC(=O)Nc3ccccc3)ccc2O[C@H]1CN(C)C(=O)Nc1ccc(F)cc1 | i | i | i | i
C[C@H](CO)N1C[C@H](C)[C@H](CN(C)C(=O)Nc2ccc(F)cc2)Oc2ccc(NC(=O)C3CC3)cc2CC1=O | i | i | i | i
C[C@H]1CN([C@@H](C)CO)C(=O)c2cccc(NS(C)(=O)=O)c2O[C@@H]1CN(C)C | i | i | i | i
C[C@@H]1CN([C@H](C)CO)C(=O)Cc2cc(NS(C)(=O)=O)ccc2O[C@@H]1CN(C)CC1CC1 | i | i | i | i
C[C@H]1CN([C@@H](C)CO)C(=O)Cc2cc(NC(=O)CCN3CCOCC3)ccc2O[C@H]1CN(C)Cc1ccc(-c2ccccc2)cc1 | i | i | i | i
C[C@@H]1CN([C@@H](C)CO)C(=O)c2cc(NC(=O)Nc3ccc4c(c3)OCO4)ccc2O[C@H]1CN(C)Cc1ccc(C(=O)O)cc1 | i | i | i | i
COC(=O)N(C)C[C@@H]1OCc2cn(nn2)CCCC(=O)N([C@H](C)CO)C[C@@H]1C | i | i | i | i
C[C@@H]1CCCCO[C@@H](CN(C)C(=O)Nc2ccccc2)[C@@H](C)CN([C@@H](C)CO)C(=O)c2cc(NC(=O)C3CCCCC3)ccc2O1 | i | i | i | i
C[C@H](CO)N1C[C@H](C)[C@H](CN(C)C(=O)Nc2cccc3ccccc23)Oc2ncc(Br)cc2C1=O | i | i | i | i
O=C(CSc1n[nH]c(-c2ccccc2Cl)n1)NC1CCCCC1 | i | i | i | i
(listing goes on)
SMILES | ID4 SMM | mut p53 SMM | Myc binder | STAT3 SMM
CCc1nnc(SCC(=O)Nc2cccc([N+](=O)[O-])c2)o1 | i | i | i | i
C[C@@H]1CN([C@@H](C)CO)C(=O)c2cc(NS(=O)(=O)c3ccccc3)ccc2O[C@H]1CN(C)Cc1ccc(-c2ccccc2)cc1 | nt | i | i | i
CN1C(=O)[C@@H]2[C@@H](CC(COc3ccccc3)=C3[C@@H](CCc4ccccc4)OB(O)C[C@@H]32)C1=O | i | i | i | i
CC(C)NC(=O)Nc1ccc2c(c1)C(=O)N([C@@H](C)CO)C[C@@H](C)[C@H](CN(C)C(=O)Cc1ccccc1)OCCCC[C@@H](C)O2 | i | i | i | i

Two consecutive entries already listed, for reference:
SMILES | ID4 SMM | mut p53 SMM | Myc binder | STAT3 SMM
CN1C(=O)[C@@H]2[C@@H](CC(COc3ccccc3)=C3[C@@H](CCc4ccccc4)OB(O)C[C@@H]32)C1=O | i | i | i | i
CC(C)NC(=O)Nc1ccc2c(c1)C(=O)N([C@@H](C)CO)C[C@@H](C)[C@H](CN(C)C(=O)Cc1ccccc1)OCCCC[C@@H](C)O2 | i | i | i | i
